# HSD17B inh – HSD17B dehydrogenase inhibition; actives 7.6% (n = 75,000); AID 893; recombinant HSD17B10, NADH fluorescence kinetic; many of its hits are not listed in these tables; Potency, µM (highest dose often 57.1 µM), for inactives: at the highest dose activity change, negative = inhibition, actives largely listed as inhibitors; active = well fitted inhibition curve with a large enough effect; inconclusive = small, poorly fitted or top-dose-only effect; inactive = no such curve, though single readings can be large or run the other way;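 note: the protocol describes HADH2 (HSD17B10) and not the HSD17B4 of the title; nearly all actives have a fitted effect of over 70% in size; most hits overshoot -100% by far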
#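 His-tagged E. coli-expressed HADH2 at 20 nM in 100 mM Tris-HCl pH 9.0 with 0.01 % Tween-20, preincubated 15 min with compound at room temperature. Reaction with 1 mM NAD+ and 90 uM beta-hydroxybutyryl coenzyme A; NADH fluorescence (360/450 nm) read kinetically over 4 min, last minus first point.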
# An asterisk follows results filed as active; ? = inconclusive; [ ] = remark or other dose. % is set by controls: 0 for no effect and ±100 for the full control effect; potency is the fitted concentration of half-maximal effect. A portion of the library; the hit share may differ from the screen's.
# The first two entries as a preview:
mol	HSD17B inh
CCOc1ccccc1-n1c(SCC(=O)N(C(C)C)C(C)C)nnc1-c1cccnc1	3%
C=C(C)COc1ccc2c(C)c(CC(=O)OC)c(=O)oc2c1C	25µM*

# The whole of this part (from the top)
mol	HSD17B inh
CCOc1ccccc1-n1c(SCC(=O)N(C(C)C)C(C)C)nnc1-c1cccnc1	3%
C=C(C)COc1ccc2c(C)c(CC(=O)OC)c(=O)oc2c1C	25µM*
CC(C)=CC1C(C(=O)Nc2ccc(Br)cn2)C1(C)C (stereo not drawn)	-13%
O=C(Oc1cc(OC(=O)c2ccccc2)c2c(c1)OC(c1ccc(OC(=O)c3ccccc3)c(OC(=O)c3ccccc3)c1)[C@@H](OC(=O)c1ccccc1)C2)c1ccccc1 (stereo partly drawn)	0%
Cc1n[nH]c(C)c1-c1nc2ccccc2[nH]1	2%
CCOc1ccccc1NC(=O)CCC(=O)O	7%
O=C(CSc1nnc(-c2ccncc2)n1-c1ccc(F)cc1)NC(=O)NCc1ccco1	?
CN(CCCNC(=O)Cn1cc2c(n1)CCCC2)C1CCCCC1	7%
O=C(CSc1nnc(Cc2ccccc2)n1-c1ccccc1)N1CCOCC1	2%
CC(C)N(Cc1ccccc1)S(=O)(=O)N(C)C	2%
Cc1cc(Nc2ccc(C)c(F)c2)n2ncnc2n1	3%
CCC(C)(C)n1nnnc1CN1CCSCC1	3%
CCSc1ncc(Cl)c(C(=O)Nc2ccc(S(=O)(=O)Nc3onc(C)c3C)cc2)n1	-21%
O=C(Oc1cc(=O)oc2ccccc12)c1ccco1	2%
COC(=O)NCCOc1cc(C)ccc1C	2%
O=C(O)[C@H]1CCCC[C@@H]1C(=O)Nc1nc2ccccc2[nH]1	1%[11.4 µM]
O=C(Cc1cccs1)Nc1ccc2c(c1)C(=O)OC2	-1%
COc1cccc(C(CC(=O)NCC2CCCO2)NS(=O)(=O)c2ccc(C)cc2)c1OC (stereo not drawn)	10%
CC1CCCC(C)N1CCNC(=O)Cn1nc(-c2ccccc2)ccc1=O (stereo not drawn)	9%
CCn1nnnc1-c1ccc(OC)c(S(=O)(=O)N2CCCCC2)c1	-24%
CCOC(=O)c1c(-c2ccccc2)c(C(C)=O)c(=O)n(C)c1C	3%
COc1ccc(NS(=O)(=O)c2ccc3c(c2)oc(=O)n3C)c(OC)c1	0%
O=C(O)C1Nc2c(O)cccc2C2C=CCC12 (stereo not drawn)	7.9µM*
Cc1c(C(=O)NCc2ccco2)sc2nc(-c3ccccc3)cn12	0%
CCc1ccc(OCC(=O)N(C)C2CCS(=O)(=O)C2)cc1 (stereo not drawn)	7%

# Quoted from the listing:
# For HSD17B inh, COC(=O)NCCOc1cc(C)ccc1C is listed with 2%
# For HSD17B inh, CCSc1ncc(Cl)c(C(=O)Nc2ccc(S(=O)(=O)Nc3onc(C)c3C)cc2)n1 is listed with -21%

# Continued.
mol	HSD17B inh
Cc1ccc(-c2cc(C(=O)NCC3CCCO3)no2)cc1 (stereo not drawn)	1%
O=C1c2ccccc2C(=O)N1Cc1nc2ccccc2c(=O)n1CCN1CCOCC1	-1%
COC(=O)C1=C(C)NC2=C(C(=O)CCC2)C1c1coc2ccccc2c1=O (stereo not drawn)	-1%
Cc1cc(C)nc(SC2=CS(=O)(=O)c3ccccc32)n1	3%
CCN(CC)C(=O)CN(C#N)c1nc(OC)nc(N(C)C)n1	3%
Nc1cc(C(=O)OCC(=O)NCc2ccco2)ccc1Cl	?
CCCOc1ccc(N2CC(C(=O)Nc3ccccc3C(=O)NCc3ccco3)CC2=O)cc1 (stereo not drawn)	0%
Cc1cccc2cc(COC(=O)c3ccco3)c(=O)[nH]c12	-13%
COc1ccc(Cn2nnnc2C(c2ccccc2Cl)N2CCN(C)CC2)cc1 (stereo not drawn)	6%
COc1ccc(Cl)cc1S(=O)(=O)N1CCN(C(=O)c2ccco2)CC1	5%
O=C(Nc1cccc(F)c1)N1CCC2(CC1)CCN(C(=O)c1ccncc1)CC2	3%
CCN(Cc1cc2ccc(C)cc2[nH]c1=O)C(=O)c1ccncc1	-23%
CCOC(=O)C1CCCN(S(=O)(=O)c2ccc(Br)c(OC)c2)C1 (stereo not drawn)	-24%
c1cc(CSSCc2ccncc2)ccn1	-25%[11.4 µM]
CS(=O)(=O)NCCCc1ccccc1	1%
Cc1ccc(S(=O)(=O)NC(CN2CCOCC2)=NCCNS(=O)(=O)c2ccccc2)cc1	1%
O=C(NCc1ccc2c(c1)OCO2)c1ccc2c(=O)n(C3CCCC3)c(=O)[nH]c2c1	?
COCCNC(=O)CN1CCN(C(c2ccccc2)c2ccccc2)CC1	4%
CCCc1cn(S(=O)(=O)c2ccc(OC)cc2OC)nc1N	-2%
c1ccc2c[n+](CCCC[n+]3ccc4ccccc4c3)ccc2c1	-4%[11.4 µM]
COc1ccc(C(C)=O)cc1COC(=O)c1cc(C)oc1C	-12%
Cc1ccc(CNc2nc3c([nH]2)c(=O)n(C)c(=O)n3C)cc1	-1%
O=C(CSc1nc(-c2ccccc2)nc2c1CCCC2)N1CCOCC1	10%
COc1ccccc1N(CN1CCCC1=O)C(=O)COc1ccccc1	15%
COc1cccc(OC)c1OCCNCCO	-3%

# Four successive entries out of the list so far, quoted:
mol	HSD17B inh
Cc1ccc(CNc2nc3c([nH]2)c(=O)n(C)c(=O)n3C)cc1	-1%
O=C(CSc1nc(-c2ccccc2)nc2c1CCCC2)N1CCOCC1	10%
COc1ccccc1N(CN1CCCC1=O)C(=O)COc1ccccc1	15%
COc1cccc(OC)c1OCCNCCO	-3%

# Remaining list, next part
SMILES | HSD17B inh
CCOC(=O)N1CCN(c2c(NCCCOC(C)C)c(=O)c2=O)CC1 | 3%
Cc1ccc(C)c(NC(=O)C2CC(O)CN2C(=O)OCc2ccccc2)c1 (stereo not drawn) | -3%
O=C(CCCCCNc1nc(=S)[nH]c2ccccc12)N1CCN(c2ccccn2)CC1 | -14%
CC(=O)N1CCC2(CCCN(C(c3ccccc3)c3ccccc3)C2)CC1 | -13%
COC(=O)Nc1sccc1C(=O)Nc1sccc1C(=O)OC | -27%
Clc1ccc(-c2nnc(-c3ccccc3)o2)c(Cl)c1 | ?
CC(C)n1c(-c2cccnc2)nc2cnccc21 | -7%
CCOc1ccc(NS(=O)(=O)c2ccc(OCC(=O)NCCCOC)cc2)cc1 | 7%
O=C(NCC(=O)N1CCC(N2CCCCC2)CC1)C1CCCCC1 | 12%
O=C(c1cccc2c1C(=O)N(Cc1cccnc1)C2)N1CCN(c2ccccc2)CC1 | 7%
O=S(=O)(NCCCCCNS(=O)(=O)c1ccc(F)cc1)c1ccc(F)cc1 | 0%
COCCOC(=O)C1=C(C)N=C2SCCC(=O)N2C1c1cccc(Br)c1 (stereo not drawn) | 1%
O=C(CN1CCSCC1)N1CCc2[nH]c3ccc(Br)cc3c2C1 | 1%
Cn1c(N2CCCC2)nc2c1c(=O)n(Cc1cccc(F)c1)c(=O)n2C | 10%
C=CCNc1nc2c(c(=O)n(C)c(=O)n2C)n1CC | 9%
COc1ccc(-c2nnc(SCC(=O)NC3CCCCC3)o2)cc1OC | -7%
Cc1oc2c(CN3CCOCC3)c(O)ccc2c(=O)c1-c1ccc(Br)cc1 | ?
Cc1nn(-c2ccccc2)c(OC(=O)c2cccs2)c1S(=O)(=O)c1ccccc1 | -11%
CC(C)Oc1cccc(-n2c(CCc3c[nH]c4ccc(Br)cc34)nc3ccccc3c2=O)c1 | -6%
N#CC1=C(N)SC(N)=C(C#N)C1c1c(Cl)cccc1Cl | 32µM*

# Ordered by heavy-atom count (high to low): three of the compounds above
SMILES | HSD17B inh
O=C(c1cccc2c1C(=O)N(Cc1cccnc1)C2)N1CCN(c2ccccc2)CC1 | 7%
CCOc1ccc(NS(=O)(=O)c2ccc(OCC(=O)NCCCOC)cc2)cc1 | 7%
COc1ccc(-c2nnc(SCC(=O)NC3CCCCC3)o2)cc1OC | -7%

# The list goes on:
SMILES | HSD17B inh
CN(C(=O)CSc1nnc(-c2ccco2)o1)C1CCCCC1 | 7%
O=C(CSc1nnc(-c2ccccc2)o1)c1ccc2c(c1)OCCO2 | -3%
CCN1C(=O)/C(=C2\SC(=S)N(CC3CCCO3)C2=O)c2ccccc21 (stereo not drawn) | -4%
COc1ccccc1CNc1ncnc2ccc(-c3ccc(N(C)C)cc3)cc12 | ?
COc1ccc(S(=O)(=O)N(C)CC(=O)Nc2ccccc2SC)cc1 | 10%
O=C(c1ccco1)N1c2ccccc2Sc2ccccc21 | -22%
CC1(C)SC2C(NC(=O)C(C(=O)O)c3ccccc3)C(=O)N2C1C(=O)O (stereo not drawn) | 1%
CC(C)C(=O)N[C@@H]1CCCN1C(=O)/C=C\c1ccccc1 | 1%[11.4 µM]
CC[N+](C)(CC)CC(=O)Nc1c(C)cccc1C | -3%
Cc1noc(C)c1S(=O)(=O)Nc1ccc(C(=O)NC2CCCCC2)cc1 | 12%
Cc1ccc(-c2[nH]n3c(=O)c4c(nc3c2C)CCCC4)cc1 | 10µM*
CC(C)Nc1nc(NC(C)C)nc(N(C)C#N)n1 | 1%
Clc1ccccc1COc1ccccc1-c1nnco1 | 10%
COc1cccc(N2CC(O)Cn3c2nc2c3c(=O)n(CCCc3ccccc3)c(=O)n2C)c1 (stereo not drawn) | ?
CCOC(=O)CN1CC23C=CC(O2)C(C(=O)Nc2ccc4c(c2)OCO4)C3C1=O (stereo not drawn) | -3%
N#Cc1c(SCC(N)=O)nsc1SCc1ccccc1Cl | -22%
C=CCn1c(SCC(=O)N2CCOCC2)nc2sc3c(c2c1=O)CCCC3 | -3%
N=C(N)SCCc1ccncc1 | 11%[11.4 µM]
COc1cccc2cc(C(=O)C3=C(O)C(=O)N(CCN(C)C)C3c3ccc(F)cc3)oc12 (stereo not drawn) | -9%
CC(C)(CO)NC(=O)CCCOc1ccc(Cl)cc1Cl | 7%
COc1nc(-c2ccccc2)ccc1-c1noc(-c2ccc(F)cc2)n1 | -27%
O=C(c1cccc(C(F)(F)F)c1)N1CCCC1 | 13%
COc1cc(OC)nc(NC2OC(=O)c3ccccc32)n1 (stereo not drawn) | 9%
O=C(NC1=NCCS1)c1ccc(OCC2CCCO2)cc1 (stereo not drawn) | 1%
O=C1C(c2ccc(F)cc2)N(Cc2ccc3c(c2)OCO3)C(=O)CN1C1CCCC1 (stereo not drawn) | 5%
Cc1nc(N2CCN(S(=O)(=O)c3cccc4nonc34)CC2)c2c3c(sc2n1)CCCC3 | 3%
COc1ccc(OCCCC(=O)N2CCCc3ccccc32)cc1 | -6%
COc1cccc(C2N(c3ccc(Cl)cc3)C(=O)C3CCCN32)c1 (stereo not drawn) | 4%
COC(=O)C1=C(N)OC2=C(C(=O)CCC2)C1c1cccs1 (stereo not drawn) | -4%
Cc1ccc(OCc2nc(C#N)c(NCc3ccco3)o2)cc1 | -22%
NCC1O[C@@H](O[C@@H]2C(O)[C@H](O[C@H]3OC(CO)C(O)C(N)C3O)[C@@H](N)C[C@H]2N)C(N)C(O)C1O (stereo partly drawn) | 6%
O=C(c1ccco1)N1CCC2(CC1)CN(c1ccc(-c3ccccc3)cc1)C2 | ?
Cn1c2c(c(=O)n(C)c1=O)C(CC(=O)Nc1ccccc1)C(=O)N2 (stereo not drawn) | ?
Cc1onc(-c2ccccc2Cl)c1C(=O)N(C)C1CCCCC1 | -2%
CCOC(=O)OCC1OC(C#Cc2ccc(F)cc2F)C=CC1OC(=O)OCC (stereo not drawn) | -3%[11.4 µM]
COc1ccc(N2CCN(c3ccc(NC(=O)c4ccc5c(c4)OCO5)cc3C#N)CC2)cc1 | -3%
CC(=O)c1ccc(N2CCN(C(=O)c3cc4c(=O)n(C)c5ccccc5c4n3C)CC2)cc1 | 0%
CCCc1nc2scc(-c3ccccc3)c2c(=O)n1N | 0%
CS(=O)(=O)N1CCC2(CC1)CN(c1ccncc1)C2 | 9%
CCOC(=O)c1sc2nc(N3CCCC3)c3c(c2c1N)CC(C)(C)OC3 | 13µM*
COc1ccc(C(=O)N2CCC3(CCCN(Cc4nccs4)C3)CC2)cc1 | 7%
COc1cc(S(=O)(=O)NCCN2CCOCC2)c(OC)cc1Cl | 0%
CCOC(=O)N1CCN(C(=O)c2ccc(S(=O)(=O)c3ccc(C)cc3)c(NC(C)=O)c2)CC1 | -8%
Cc1cc(Nc2ccccc2)nc(-c2ccccc2O)n1 | ?
CCc1nnc(NC(=O)c2ccc(S(=O)(=O)N3CCN(Cc4ccccc4)CC3)cc2)s1 | -3%
COc1ccc(/C(O)=C2/C(=O)C(=O)N(CC3CCCO3)C2c2cccc(OC)c2)cc1 (stereo not drawn) | 2%
N[C@@H](C(=O)O)c1ccc(O)c(C(=O)O)c1 | 20µM*
Cc1ccc(S(=O)(=O)NC(CC(=O)NCC2CCCO2)c2ccco2)cc1 (stereo not drawn) | -6%
Cc1ccc(C(=O)N2CCN(C(=O)c3ccc(C)c(C)c3)C(C)C2)cc1C (stereo not drawn) | 2%
Cc1noc(C)c1CSc1nc2[nH]ncc2c(=O)n1-c1ccccc1 | -5%
CCc1cc2c(=O)c(-c3nc4ccccc4[nH]3)coc2c(CN2CCCC(C)C2)c1O (stereo not drawn) | -17%
Clc1ccccc1-c1nc(Nc2ccncc2)c2ccccc2n1 | -23%
O=C(Cn1cnc2c(nnn2Cc2ccc(Cl)cc2)c1=O)N1CCN(c2ccccc2)CC1 | -5%
O=C(NCCC1=CCCCC1)C1CCCN(S(=O)(=O)c2cnc[nH]2)C1 (stereo not drawn) | 6%
CCOC(=O)C1CCCN(CC(=O)Nc2c(C(=O)OC)[nH]c3ccc(C)cc23)C1 (stereo not drawn) | 25µM*
COc1ccc(N(CC(=O)N2CC=C(c3ccccc3)CC2)S(=O)(=O)c2c(C)noc2C)cc1 | 1%
O=C(CCCCCN1C(=O)c2ccccc2C1=O)NCc1ccco1 | -13%
